VDR inhibitor – inhibitors of human vitamin D receptor; P11473; VDR-SRC2-3 peptide fluorescence polarization, 2 h; Potency, µM, without a hit: max response, negative = inhibition, most hits filed as inhibitors; 0.93% of 400,000 active; AID 504847; active means well fitted inhibition curve with a large enough effect; inconclusive means small, poorly fitted or top-dose-only effect, or another doubt; inactive means no such curve, though single readings can be large or run the other way; further: series mostly up to about 120 µM
Target sequence (P11473 whole entry, looked up): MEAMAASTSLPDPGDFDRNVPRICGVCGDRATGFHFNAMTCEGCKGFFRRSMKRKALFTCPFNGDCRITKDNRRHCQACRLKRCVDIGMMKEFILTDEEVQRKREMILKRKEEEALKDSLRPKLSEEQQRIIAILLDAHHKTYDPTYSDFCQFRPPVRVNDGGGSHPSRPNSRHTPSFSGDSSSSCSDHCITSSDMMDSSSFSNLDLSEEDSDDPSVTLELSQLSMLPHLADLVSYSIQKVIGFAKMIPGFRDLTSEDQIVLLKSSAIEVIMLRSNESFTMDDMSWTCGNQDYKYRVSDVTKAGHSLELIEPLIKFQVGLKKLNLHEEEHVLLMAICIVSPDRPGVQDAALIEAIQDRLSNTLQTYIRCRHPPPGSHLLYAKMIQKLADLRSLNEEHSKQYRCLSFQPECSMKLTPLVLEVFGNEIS
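The screen uses fluorescence polarization to detect compounds that interfere with recruitment of the SRC2-3 coactivator peptide to VDR; plates are read after 2 h at room temperature.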
* marks the source's active call; other numbers are inactive results; ? = inconclusive; & = joins results of further samples; [ ] = dose if it differs, or a comment. On the % scale 0 is the no-effect control and ±100 the full control effect; potency means the concentration at half of the fitted maximal effect. An excerpt; the hit share may differ from the screen's.

entry	Compound	VDR inhibitor
1	COCCC(=O)N1CCC(Oc2ccc(C(=O)NCc3csc(C)n3)cc2)CC1	30%
2	OCc1ccc2c(c1)c(-c1ccc3c(c1)OCCO3)c(-c1ccccc1)n2-c1ccccc1	-18%
3	O=C(CN1CCN(S(=O)(=O)N2CCOCC2)CC1)Nc1ccc(Cl)c(Cl)c1	-2%
4	CCN(C(=O)Cn1c(=O)n2nc(CCn3nc(C)cc3C)nc2c2ccccc21)c1cccc(C)c1	-10%
5	CN(C(=O)/C=C/c1ccco1)c1ccccc1C(=O)O	-8%
6	CC(C)Oc1ccc(S(=O)(=O)N2CCOCC2)cc1NC(=O)C1COc2ccccc2O1 (stereo not drawn)	7%
7	COc1ccc(Nc2ccc(S(=O)(=O)N3CCCCC3)cc2[N+](=O)[O-])cc1OC	-6%
8	Cc1ccc(-c2ccc(/C=C(\C#N)C(N)=S)o2)c([N+](=O)[O-])c1	?
9	O=C(CCNC(=O)c1ccc(Cl)cc1)Nc1ccc(F)cc1F	-8%
10	O=C(COC(=O)c1ccco1)Nc1ccccc1	-2%
11	Cc1ccc(C)c(NC(=O)CSc2c(C)cnc3c2c(=O)n(C)c(=O)n3C)c1	16%
12	Cn1c(-c2ccccc2)cnc1NCc1ccccc1	-8%
13	CCCCn1c(N)c(N(Cc2ccccc2OC)C(=O)CCC(C)C)c(=O)[nH]c1=O	-6%
14	Cc1cc(C)cc(NC(=O)C2CCN(C(=O)c3cnn(-c4ccccc4)c3-n3cccc3)CC2)c1	4%
15	CCn1nc(C)c2c(-c3ccccc3)cc(=O)n(C(C)C(=O)Nc3cccc(F)c3)c21 (stereo not drawn)	14%
16	O=C(NCC(c1ccc(F)cc1)N1CCOCC1)c1cccnc1Sc1ccccc1 (stereo not drawn)	-12%
17	CCC(=O)Nc1c(-c2cccs2)c(=O)c2ccccc2n1C	-8%
18	CCNc1ncc2nc(-c3cccc(C#N)c3)c(=O)n(C)c2n1	-11%
19	CC1CCCN(CCCNC(=O)c2ccc3c(c2)N(Cc2ccc(Cl)cc2)C(=O)c2ccccc2S3(=O)=O)C1 (stereo not drawn)	0%
20	Cc1ccc(S(=O)(=O)Nc2ccccc2-c2ccccc2NS(=O)(=O)c2ccc(C)cc2)cc1	3%
21	C=CCOC(=O)N[C@H](/C(C(=O)OC)=C(\C)NCc1ccccc1)c1cccc(OC)c1	4%
22	CCCOc1cccc(C2c3c(oc4ccccc4c3=O)C(=O)N2c2nncs2)c1 (stereo not drawn)	-21%
23	CCNC(=O)c1ccc2c(c1)nc1n2CCCCC1	1%
24	CN(C(=O)COC(=O)c1cc(-c2ccccc2Cl)nc2ccccc12)C1CCS(=O)(=O)C1 (stereo not drawn)	-9%
25	CN1C(=O)CS(=O)c2ccc(C(=O)NC3CC3)cc21 (stereo not drawn)	0%

Brought forward from above: 2 entries, then new ones.
entry	Compound	VDR inhibitor
24	CN(C(=O)COC(=O)c1cc(-c2ccccc2Cl)nc2ccccc12)C1CCS(=O)(=O)C1 (stereo not drawn)	-9%
25	CN1C(=O)CS(=O)c2ccc(C(=O)NC3CC3)cc21 (stereo not drawn)	0%
26	Cc1cccc(Cn2c(=O)n(-c3ccc(CC(=O)NCc4ccco4)cc3)c(=O)c3sccc32)c1	-11%
27	Cc1cc(NS(=O)(=O)c2ccc(NC(=O)Nc3cccc(C(F)(F)F)c3)cc2)no1	3%
28	CN(C)C1C(=O)C(C(N)=O)=C(O)[C@@]2(O)C(=O)C3=C(O)c4c(O)ccc(Cl)c4C(O)[C@H]3C[C@@H]12 (stereo partly drawn)	-2%
29	FC(F)Oc1ccc(NC(=S)NC23CC4CC(CC(C4)C2)C3)cc1	-6%
30	COc1cccc(OCc2cc(C(=O)NCCN3CCCCC3CO)no2)c1 (stereo not drawn)	6%
31	COc1ccc(-n2c(=O)c(-c3ccccc3)nc3cncnc32)cc1	-3%
32	O=S(=O)(c1cc(Br)c(Cl)s1)N1CCCC1	20%
33	O=C(CNC(=O)c1ccccc1F)Nc1ccncc1	10%
34	COc1ccc(N2C(=O)C3CCCN3C2c2cccc(OC)c2OC)cc1 (stereo not drawn)	19%
35	CC(=O)Nc1ccc(N(C(=O)CNC(=O)c2cccs2)C(C(=O)NC(C)(C)C)c2ccccc2)cc1 (stereo not drawn)	-1%
36	COC(OC)C1(CCc2ccccc2)NC(=O)NC1=O (stereo not drawn)	5%
37	O=C(c1ccccc1C(=O)N(c1ccccc1)c1ccccc1)N1CCCCC1	2%
38	CCn1cc(CN2CCN(CCc3ccccc3)C(CCO)C2)c(C)n1 (stereo not drawn)	2%
39	O=C(NCCc1csc(-c2cccnc2)n1)c1cccc(Cl)c1	-8%&12%
40	CC(=O)N1CCCC1c1nc2ccccc2n1Cc1cc(C)ccc1C (stereo not drawn)	8%
41	COc1ccc(S(=O)(=O)N2CCC(C(=O)N[C@@H](C)C(=O)NC3CC3)CC2)cc1	11%
42	CN=C(Nc1cccc(OC)c1)SC1CC(=O)N(c2ccc(C(=O)O)cc2)C1=O (stereo not drawn)	-15%
43	Cn1ncc2c(N)nc(NCCO)nc21	-14%
44	NC(=S)N/N=C/c1c(O)c(Br)cc2oc3c(c12)CCCC3	-22%
45	O=C(Nc1nc(-c2ccccc2)cs1)Nc1ccc(F)cc1F	-6%
46	Cc1ccc(Cl)cc1N1CCN(C(=O)c2ccc3c(c2)N(Cc2ccc(F)cc2)CCS3)CC1	-3%
47	COc1ccc(C2NC(=O)NC(O)(C(F)(F)F)C2C(=O)c2ccc(C)cc2)cc1 (stereo not drawn)	-3%
48	COc1cc(Nc2nc3c(S(=O)(=O)c4ccccc4)nnn3c3ccc(Cl)cc23)cc(OC)c1	3%
49	CCN(CC)P(=O)(Nc1ccc([N+](=O)[O-])cc1)c1c(C)nn(CCC#N)c1NC(=O)c1ccc(Cl)cc1Cl (stereo not drawn)	-11%
50	COc1ccccc1-c1nnc(SCC(=O)Nc2ccc(S(N)(=O)=O)cc2)n1C	-1%
51	COc1ccccc1Oc1nc2c(c(=O)n(C)c(=O)n2C)n1Cc1cccc(Br)c1	-3%
52	Cc1cc(C)cc(OCc2ccc(C(=O)Nc3ccccc3F)o2)c1	-15%
53	CC(C)C[C@@H](CN1CCC[C@@H]1CN1C(=O)C(=O)NC[C@@H]1Cc1ccccc1)N1C[C@H](Cc2ccc(O)cc2)N(CCc2ccccc2)C(=O)C1=O	-23%
54	CC1(C)CC(NCCN2CCN(C3=CC(=C(C#N)C#N)CC(C)(C)C3)CC2)=CC(=C(C#N)C#N)C1	-20%
55	O=S(=O)(NCC1CCC(NS(=O)(=O)c2c(F)cccc2F)CC1)c1ccc2c(c1)OCCO2 (stereo not drawn)	-7%
56	CC(=O)c1ccc(N2CCN(S(=O)(=O)c3cccc4nsnc34)CC2)cc1	-6%
57	NC(=O)Cn1c(O)c(N=NC(=O)CNC(=O)/C=C/c2ccccc2)c2ccccc21	-8%
58	O=C(COC(=O)CCC(=O)c1ccc(F)cc1)Nc1ccc(N2CCOCC2)cc1	13%
59	CCCN1CNc2c(c(=O)[nH]c(=S)n2CCc2ccc(OCC)c(OCC)c2)C1	-5%
60	O=C(CN1CCCC1)N1c2ccccc2Sc2ccc(Cl)cc21	-9%
61	Cn1nccc1NC(=O)CC1(CC(=O)O)CCCCC1	-21%
62	CCn1c(CNC(=O)c2ccco2)nnc1SCCOc1ccccc1	14%
63	CCN(c1ccccc1)S(=O)(=O)c1ccc(N2CCN(c3ccc(OC)cc3)CC2)nc1	-17%
64	O=C(Nc1ccc(Br)cc1)c1ccc(N2C(=O)C3CCCCC3C2=O)cc1 (stereo not drawn)	4%
65	COc1ccc2oc(C(=O)NC(C)c3ccccn3)c(C)c2c1 (stereo not drawn)	-13%
66	O=C(NCC1OCCCN1S(=O)(=O)c1cc(F)ccc1F)C(=O)NC1CCCCCC1 (stereo not drawn)	4%
67	COC(=O)CNC(c1ccccc1)c1cc(Br)ccc1NC(=O)CNC(=O)OCc1ccccc1 (stereo not drawn)	-18%
68	COc1cccc(-n2c(COc3ccc(C)cc3)nnc2SCC(N)=O)c1	-17%
69	COc1ccc(CN(C(=O)c2ccco2)c2ccc(C)c(C)c2)cc1	-14%
70	CCOc1ccc(NC(=O)CN2C(=O)COc3ccc(S(=O)(=O)N4CCCC4)cc32)cc1	-10%
71	COc1ccc(CN(CC(O)COc2cccc3[nH]cc(C)c23)C(C)(C)C)cc1 (stereo not drawn)	7%
72	CCN(CC)CCn1c(NCc2ccc3c(c2)OCO3)nc2ccccc21	-16%
73	COc1ccc(S(=O)(=O)N2CCN(c3ccc(F)cc3)CC2)cc1-c1noc(C)n1	9%
74	COc1ccc(CNc2nc(NCc3ccc(OC)cc3)c3ncn(C4CCCCC4)c3n2)cc1	-15%
75	Clc1ccc(-c2noc3c2-c2nc(Cc4cccc5ccccc45)sc2CC3)cc1	-10%

The listing continues.
entry	Compound	VDR inhibitor
76	CN1CCN(C(=O)c2cc(S(=O)(=O)Nc3ccccc3F)c(Cl)cc2Cl)CC1	32%[activator]
77	COc1ccc(/C=C/C(=O)Nc2ccccc2C(F)(F)F)cc1	4%
78	Cn1c(SCC(=O)NCC2CCCO2)ncc(C(=O)Nc2ccc(F)cc2)c1=O (stereo not drawn)	8%
79	Cc1ccc2cc(C#N)c(SCC(=O)N3CCCc4ccccc43)nc2c1	-2%
80	O=C(c1cc(COc2ccc(F)cc2Cl)on1)N(CCO)Cc1cccs1	-1%
81	CCOc1ccccc1OCCOCCOc1ccccc1[N+](=O)[O-]	1%
82	CCn1c(CN2CCN(C(c3ccccc3)c3ccccc3)CC2)nc2c1c(=O)n(C)c(=O)n2C	-2%
83	COc1cc(CNC2CCCC2)cc(Cl)c1OCc1ccccc1F	3%
84	COc1ccc(C(=O)NCC(=O)OCC(=O)Nc2cccc(S(=O)(=O)N3CCCC3)c2)cc1	?
85	CCC(=O)N1CCc2cc(S(=O)(=O)NCCC(=O)NCc3ccccc3OC)ccc21	-7%
86	C=CCN(CC=C)C(=O)CN1C(=O)NC(Cc2c[nH]c3ccccc23)C1=O (stereo not drawn)	6%
87	Cc1c(/C=C(\C#N)C(=O)Nc2cccc(Cl)c2)c2ccccc2n1Cc1ccccc1Cl	13%
88	COc1ccc2nc(SCCC(=O)O)cc(C)c2c1	-14%
89	CCOc1ccccc1NC(=O)CCS(=O)(=O)c1ccc2c(c1)CC(C)N2C(C)=O (stereo not drawn)	8%
90	Cc1nc(SCCOc2ccc(F)cc2)c2ccccc2n1	-8%
91	Cc1nc2c(C)cccc2c2c1COC2	10%
92	Cc1cc2c(Nc3ccc(O)cc3)ncnc2s1	-1%
93	CC(C)C(C)NC(=O)COc1ncnc2sccc12 (stereo not drawn)	-6%
94	N#Cc1ccc(CSc2nnc(-c3ccccn3)n2-c2ccc(Cl)cc2)cc1	6%
95	O=C(CCc1ccccc1)NNC(=O)c1ccccc1C(=O)O	-20%
96	N/C(Cc1ccccc1Sc1ccccc1)=N\O	-6%
97	CCCCOc1ccc(-c2nnn(CCC(=O)N3CCOCC3)n2)cc1	-4%
98	CC1(C)O[C@@H]2[C@H](O1)[C@@H](CO)O[C@H]2n1cnc2c(N)ncnc21	-3%
99	COc1ccc(N(CC(=O)Nc2cccc(N(C)S(C)(=O)=O)c2)S(C)(=O)=O)cc1OC	-1%
100	Cc1ccc(NC(=O)C(c2ccccc2)N2CCN(CC(=O)N3CCOCC3)CC2)cc1Cl (stereo not drawn)	20%

Single entries from the list:
Reading of entry 89 in VDR inhibitor: 8%
Reading of entry 79 in VDR inhibitor: -2%

7 neighbouring entries from above, for reference:
entry	Compound	VDR inhibitor
85	CCC(=O)N1CCc2cc(S(=O)(=O)NCCC(=O)NCc3ccccc3OC)ccc21	-7%
86	C=CCN(CC=C)C(=O)CN1C(=O)NC(Cc2c[nH]c3ccccc23)C1=O (stereo not drawn)	6%
87	Cc1c(/C=C(\C#N)C(=O)Nc2cccc(Cl)c2)c2ccccc2n1Cc1ccccc1Cl	13%
88	COc1ccc2nc(SCCC(=O)O)cc(C)c2c1	-14%
89	CCOc1ccccc1NC(=O)CCS(=O)(=O)c1ccc2c(c1)CC(C)N2C(C)=O (stereo not drawn)	8%
90	Cc1nc(SCCOc2ccc(F)cc2)c2ccccc2n1	-8%
91	Cc1nc2c(C)cccc2c2c1COC2	10%

The list goes on:
entry	Compound	VDR inhibitor
101	Cc1ccc(NC(=O)CCc2ccc(S(=O)(=O)NC3CCCCC3)cc2)cc1	-13%
102	Cc1[nH]n(-c2ccccc2)c(=O)c1N=Nc1ccccc1C(=O)N1CCOCC1	-17%
103	COCC(=O)Nc1ccc(N2CCOCC2)c(S(=O)(=O)Nc2ccccc2OC)c1	?
104	Cc1ccc(-c2nnc(-c3cccs3)o2)cc1	0%
105	O=C(c1cc([N+](=O)[O-])ccc1Cl)N1CCN(c2ccccn2)CC1	0%
106	O=C(CS(=O)(=O)c1cn(Cc2ccc(Cl)cc2)c2ccccc12)N1CCCCC1	-2%
107	C[C@H](CO)N1C[C@H](C)[C@@H](CN(C)C(=O)Nc2ccc3c(c2)OCO3)Oc2c(NC(=O)c3ccncc3)cccc2C1=O	4%
108	CSc1ccc(Cl)c(C(=O)Nc2cc(S(=O)(=O)N3CCOCC3)ccc2N2CCOCC2)c1	-9%
109	COc1cccc(Nc2ncccc2C(=O)NCc2ccccc2)c1	1%
110	O=C(NNS(=O)(=O)c1ccc(Cl)cc1Cl)c1cc2ncc(C(F)(F)F)cc2s1	44%[activator]
111	COC(=O)c1ccccc1NC(=O)COc1ccc(S(=O)(=O)N2CCCC2)cc1C	-16%
112	Cn1nc(SCC(=O)O)sc1=S	-4%
113	Cc1ccc(Oc2nc3ccccn3c(=O)c2/C=C(\C#N)C(=O)NC2CCS(=O)(=O)C2)c(C)c1 (stereo not drawn)	4%
114	Cc1cc(C)cc(C(=O)NCC(=O)OCC(=O)N(C)C2CCS(=O)(=O)C2)c1 (stereo not drawn)	0%
115	O=C(N/N=C/c1cn(Cc2ccccc2)c2ccccc12)c1cc(O)cc(O)c1	-1%
116	CCOC(=O)N1CCN(C(=O)C(C)c2ccc([N+](=O)[O-])cc2)CC1 (stereo not drawn)	-7%

Source: PubChem BioAssay
